TLR9-MyD88 block – TLR9-MyD88 interaction inhibition | AID 504734 | inhibition, % at 4.98 µM | CHO BLA complementation TLR9-MyD88, CCF4 FRET ratio | 340,000 compounds, 0.21% hits;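 active = inhibition above the mean over all tested compounds plus 3 SD, cut at about 21% in these data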;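 also: 0% = DMSO only wells and 100% = clavulanate BLA inhibitor control wells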
NOD2-RIPK2 inh – blocks binding of human NOD2 to RIPK2 | CHO BLA complementation NOD2-RIPK2, CCF4 ratio | inhibition, % at 4.98 µM | 360,000 compounds, 0.38% hits | AID 624267; in the data active = inhibition above about 21%;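 also: 0% = vehicle only and 100% = reference blocker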
LRH-1 inv ag – suppresses constitutive activity of human LRH-1. O00482. HEK293T StAR-luciferase reporter, LRH-1 transfected, 24 h. inhibition, % at 3.6 µM. 360,000 compounds, 0.13% hits. AID 602396;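 active = inhibition above the mean inhibition of all tested compounds plus 3 SD, cut at about 73% in these data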;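 also: 0% = DMSO wells and 100% = reporter-only cells lacking LRH-1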
SRC1 inh – inhibits human SRC1 coactivator | 360,000 compounds, 0.12% hits | AID 588354 | HEK293 GAL4-SRC1 luciferase reporter, luminescence | inhibition, % at 3.6 µM;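 active = inhibition above the campaign mean plus 3 SD, with each screening campaign given its own cutoff, cut at about 60% in these data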;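 also: 0% = DMSO treated cells and 100% = gossypol at 36 µM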
NR2F2 inh – NR2F2 (human) inhibition, primary screen; 370,000 compounds, 0.7% hits; HEK293T NGFI-A luciferase reporter, luminescence; inhibition, % at 8.6 µM; AID 686940;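 active = inhibition above a per-plate cutoff, mean inhibition of test wells between control levels plus 3 SD, cut at about 38% in these data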;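 also: cells cotransfected with COUP-TFII expression vector driving the NGFI-A reporter; 0% = median of COUP-TF2 test wells and 100% = reporter-only cells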
Target sequence (P24468 whole entry, looked up): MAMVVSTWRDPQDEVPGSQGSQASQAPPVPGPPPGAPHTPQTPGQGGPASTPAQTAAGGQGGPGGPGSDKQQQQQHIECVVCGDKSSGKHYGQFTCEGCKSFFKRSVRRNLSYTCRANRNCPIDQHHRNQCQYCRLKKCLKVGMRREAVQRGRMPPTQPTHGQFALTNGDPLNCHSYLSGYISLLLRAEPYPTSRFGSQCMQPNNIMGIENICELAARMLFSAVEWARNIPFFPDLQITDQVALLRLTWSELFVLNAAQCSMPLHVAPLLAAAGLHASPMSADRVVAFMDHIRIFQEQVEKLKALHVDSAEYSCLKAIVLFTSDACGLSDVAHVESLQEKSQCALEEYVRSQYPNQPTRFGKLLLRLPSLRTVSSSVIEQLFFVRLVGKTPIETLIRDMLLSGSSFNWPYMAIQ
C8 TRAIL sens – sensitizes caspase-8 expressing cells to TRAIL | inhibition (viability loss, TRAIL sensitization), % at 10 µM | 360,000 compounds, 1% hits | NB7+C8 cells + TRAIL, ATPlite viability luminescence;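 active = compounds causing at least 50% loss of cell viability in the single-dose screen, relative to plate controls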
NCOA2 inhibitor – human SRC2 (NCOA2) inhibition. 370,000 compounds, 0.17% hits. HEK293 GAL4-SRC2 luciferase reporter, luminescence. Q15596. inhibition, % at 9 µM;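 active = inhibition above the mean inhibition of all tested compounds plus 3 SD, set per campaign, cut at about 52% in these data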;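 also: 0% = DMSO treated cells and 100% = cells given Gossypol at 36 µM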
Vif inh – HIV Vif inhibition. HEK293T cells, Vif self-association by quenched fluorescence, imaging, 24 h. inhibition, % at 7.49 µM. 340,000 compounds, 0.35% hits; in the data active = inhibition above about 50%, passing the limit was not always enough; also: some results filed as inactive read as strong as hits
NCOA3 inh – inhibits human SRC3 coactivator; Q9Y6Q9; HEK293 GAL4-SRC3 luciferase reporter, luminescence; inhibition, % at 3.6 µM; 360,000 compounds, 0.17% hits;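 active = inhibition above a per-campaign cutoff, the mean of all compounds plus 3 SD, cut at about 60% in these data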;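 also: 0% = DMSO-treated cells and 100% = gossypol-treated cells at 36 µM; higher means less SRC3-driven luciferase light from the GAL4 reporter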
TROY NFkB inh – blocks TROY-dependent signaling in reporter cells; AID 1347056; Q293 LMP1-TROYcd NF-kB luciferase reporter, 4 h; 360,000 compounds, 0.98% hits; inhibition, % at 10 µM;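 active = compounds whose plate-normalised and pattern-corrected inhibition of the luciferase reporter signal at the single screening dose is 50% or more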
* marks the source's active call; other numbers are inactive results; / = no result given.

SMILES | TLR9-MyD88 block | NOD2-RIPK2 inh | LRH-1 inv ag | SRC1 inh | NR2F2 inh | C8 TRAIL sens | NCOA2 inhibitor | Vif inh | NCOA3 inh | TROY NFkB inh
Cc1cc(N2CCCC2=O)cc(C)c1S(=O)(=O)Nc1c(C)nn(C)c1C | -6 | -6 | -7 | -15 | -1 | 1 | 2 | 16 | 17 | -17
CCCCCC(=O)NC(=S)Nc1ccc(Br)cc1C | -5 | -9 | 8 | -9 | -9 | 2 | -34 | 15 | 13 | -25
Cc1nc(N)nc(N)c1/C=C/C(C)(C)c1ccc(Cl)cc1 | 1 | 0 | 45 | 70* | 47* | 76* | 22 | -8 | 49 | 36
CCOC(=O)c1c(NC(=O)C2C3CCC(O3)C2C(=O)O)sc(C)c1-c1ccc(F)cc1 (centres undefined) | -6 | -8 | -7 | -12 | -6 | 7 | -1 | 1 | 12 | 1
Cc1cc(N/N=C\c2ccc(Br)cc2)nc(-n2nc(C)cc2C)n1 | 1 | -5 | 13 | 20 | 24 | 26 | 15 | 0 | 2 | -13
CC(C)N1CCN(c2ccc(OC[C@H]3CO[C@](Cn4cncn4)(c4ccc(Cl)cc4Cl)O3)cc2)CC1 | -7 | 0 | -27 | -8 | 13 | 8 | -11 | 0 | -10 | 3
CCOc1ccc(S(=O)(=O)N2CCC(C(=O)NCCc3ccc(S(N)(=O)=O)cc3)CC2)cc1 | 5 | -2 | 13 | 11 | -23 | -2 | 13 | -10 | 0 | 10
COc1ccc(N2C(=O)CC(Sc3nnc(-c4ccccc4)o3)C2=O)cc1 (centres undefined) | 4 | 6 | -8 | -6 | 9 | -13 | -7 | -2 | 2 | -10
Cc1ccc(S(=O)(=O)N[C@H](C(=O)N2CCC(C(=O)N[C@@H](CC(=O)O)C(=O)O)CC2)C(C)C)cc1 | 7 | 2 | 6 | 2 | -11 | -10 | -35 | -8 | 15 | 3
CC(=NNC(=S)Nc1cccc(Cl)c1)c1ccccn1 | 10 | 2 | 46 | 58 | 8 | -5 | 30 | -16 | 67* | 17
Cc1cc(C(=O)COC(=O)c2cccc(NS(C)(=O)=O)c2)c(C)n1CC1CCCO1 (centres undefined) | -8 | 5 | 39 | 47 | 72* | 59* | 9 | -3 | 38 | 76*
COc1ccc(S(=O)(=O)NC(CC(=O)NCc2ccco2)C(C)C)cc1 (centres undefined) | -1 | -8 | 2 | -4 | 0 | -2 | -4 | -5 | -13 | -5
O=C(CN1C(=O)c2ccccc2C1=O)NNC1=NS(=O)(=O)c2ccccc21 | -5 | 2 | 11 | -7 | -8 | 16 | -33 | -7 | 8 | -11
O=c1c2cnn(-c3ccccc3)c2nc(-c2cccs2)n1-c1ccc(Cl)cc1 | -2 | 4 | -7 | -5 | 3 | 13 | 2 | 1 | 6 | 7
COCCN1CSC(=S)N(Cc2ccco2)C1 | -2 | -1 | -8 | -1 | 8 | -17 | -18 | / | 2 | 12
COc1ccc(C(=O)CSc2nnc(Cc3ccccc3)o2)cc1 | 7 | 7 | 12 | 4 | 19 | -2 | -9 | -4 | 16 | 4
COc1ccc(/C=N/Nc2cc(OC)ncn2)cc1 | 6 | -3 | -133 | -103 | -38 | 61* | -63 | 12 | -58 | -20

Molecules above containing bromine:
SMILES | TLR9-MyD88 block | NOD2-RIPK2 inh | LRH-1 inv ag | SRC1 inh | NR2F2 inh | C8 TRAIL sens | NCOA2 inhibitor | Vif inh | NCOA3 inh | TROY NFkB inh
CCCCCC(=O)NC(=S)Nc1ccc(Br)cc1C | -5 | -9 | 8 | -9 | -9 | 2 | -34 | 15 | 13 | -25
Cc1cc(N/N=C\c2ccc(Br)cc2)nc(-n2nc(C)cc2C)n1 | 1 | -5 | 13 | 20 | 24 | 26 | 15 | 0 | 2 | -13

One compound at a time, from the list above. Order of values: TLR9-MyD88 block, NOD2-RIPK2 inh, LRH-1 inv ag, SRC1 inh, NR2F2 inh, C8 TRAIL sens, NCOA2 inhibitor, Vif inh, NCOA3 inh, TROY NFkB inh
Cc1nc(N)nc(N)c1/C=C/C(C)(C)c1ccc(Cl)cc1 in the list: 1, 0, 45, 70*, 47*, 76*, 22, -8, 49, 36
COc1ccc(C(=O)CSc2nnc(Cc3ccccc3)o2)cc1 in the list: 7, 7, 12, 4, 19, -2, -9, -4, 16, 4
COc1ccc(/C=N/Nc2cc(OC)ncn2)cc1 in the list: 6, -3, -133, -103, -38, 61*, -63, 12, -58, -20
CCCCCC(=O)NC(=S)Nc1ccc(Br)cc1C in the list: -5, -9, 8, -9, -9, 2, -34, 15, 13, -25
CC(C)N1CCN(c2ccc(OC[C@H]3CO[C@](Cn4cncn4)(c4ccc(Cl)cc4Cl)O3)cc2)CC1 in the list: -7, 0, -27, -8, 13, 8, -11, 0, -10, 3

High-throughput results (PubChem)

An excerpt. The share of hits here may be higher or lower than overall.
